NPR1 antag: blocks ANP-stimulated signaling of human Npr1 receptor; Potency, µM (top dose mostly 46.3 µM), inactives show at the highest dose activity change, negative = inhibition, actives largely listed as inhibitors; P16066; 76,000 compounds, 1.6% hits; HEK293 hNpr1 GloSensor cGMP, ANP-stimulated luminescence; active = well fitted inhibition curve with a large enough effect; inconclusive = small, poorly fitted or top-dose-only effect; inactive = no such curve, though single readings can be large or run the other way;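 further: nearly all actives have a fitted effect of over 60% in size; nearly all hits also lower the signal before the agonist is added; a reference antagonist and vehicle were the controls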
Target sequence (P16066 whole entry, looked up): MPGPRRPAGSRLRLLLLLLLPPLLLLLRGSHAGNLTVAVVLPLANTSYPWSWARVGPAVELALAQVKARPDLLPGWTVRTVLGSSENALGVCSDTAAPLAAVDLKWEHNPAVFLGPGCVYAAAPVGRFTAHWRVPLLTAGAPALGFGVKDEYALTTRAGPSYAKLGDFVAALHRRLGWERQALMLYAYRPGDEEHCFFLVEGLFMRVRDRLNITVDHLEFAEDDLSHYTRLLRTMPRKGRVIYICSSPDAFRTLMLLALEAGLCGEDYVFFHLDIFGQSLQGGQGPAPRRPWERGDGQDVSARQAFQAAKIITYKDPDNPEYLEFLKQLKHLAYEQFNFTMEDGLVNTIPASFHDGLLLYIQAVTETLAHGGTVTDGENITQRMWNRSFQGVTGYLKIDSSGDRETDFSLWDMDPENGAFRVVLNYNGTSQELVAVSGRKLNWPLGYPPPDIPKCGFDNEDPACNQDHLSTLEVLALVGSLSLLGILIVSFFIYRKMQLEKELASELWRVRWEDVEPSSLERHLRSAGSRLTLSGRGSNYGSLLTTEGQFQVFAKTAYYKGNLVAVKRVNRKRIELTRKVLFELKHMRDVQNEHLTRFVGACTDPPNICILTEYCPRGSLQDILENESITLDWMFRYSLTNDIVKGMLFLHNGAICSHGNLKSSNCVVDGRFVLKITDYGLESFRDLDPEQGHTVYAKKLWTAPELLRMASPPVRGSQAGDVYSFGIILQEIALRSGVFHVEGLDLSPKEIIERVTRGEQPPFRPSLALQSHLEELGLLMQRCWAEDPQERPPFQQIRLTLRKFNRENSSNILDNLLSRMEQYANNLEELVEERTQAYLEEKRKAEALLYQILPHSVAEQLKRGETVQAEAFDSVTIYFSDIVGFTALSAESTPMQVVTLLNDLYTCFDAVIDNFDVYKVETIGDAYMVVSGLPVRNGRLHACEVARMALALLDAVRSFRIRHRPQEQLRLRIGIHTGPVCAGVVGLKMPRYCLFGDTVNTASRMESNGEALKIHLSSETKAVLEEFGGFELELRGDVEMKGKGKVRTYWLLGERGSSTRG
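Compound pre-incubated 30 min at room temperature on GloSensor-loaded HEK293 cells stably carrying hNpr1 and the pGS-40F cGMP biosensor. Stimulation uses hNppA at 0.1 nM final; luminescence is taken at baseline and 20 min post-agonist.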
* = called active by the depositor; u = inconclusive; [ ] = another dose, or the depositor's remark. On the % scale 0 is the no-effect control and ±100 the full control effect; potency means the concentration at half of the fitted maximal effect. This is a subset. The share of hits here may be higher or lower than overall.

SMILES	NPR1 antag
CNC(=O)N1CCC2(CC1)CC(N(Cc1ccc(F)cc1)C1CC1)CCO2 (centres undefined)	-1.5%
CN(C)C[C@@H]1CN(S(C)(=O)=O)C[C@H]1NC(=O)c1nccc2ccccc12	2.7%
CCOc1cc(=O)n2c(c1C(=O)Nc1ccc(C(C)C)cc1)CCCC2	1.8%
N#Cc1ccc(S(=O)(=O)N2CCC(Cc3nc(-c4ccncc4)n[nH]3)C2)cc1 (centres undefined)	-13.8%
O=C(c1ccc(C(F)(F)F)cc1)N1CCn2c(nnc2C2CC2)C1	3.3%[70.6 µM]
CCCn1c(C)cnc1CC1CCCN(C(=O)Cc2cccc(F)c2)C1 (centres undefined)	-8.0%
COc1ccc(-c2cc3c(=O)n(CCNC(=O)c4ccc(N(C)C)cc4)ccn3n2)cc1	1.0%
CN1Cc2ccc(C(=O)Nc3ccccc3)cc2OCC1=O	-8.2%[70.6 µM]
O=C(NC1CC(c2cc(N3CCC(O)C3)ncn2)C1)c1ccoc1 (centres undefined)	12.7%
COCCN(C)C[C@H]1C[C@@H](CO)CN(C(=O)Cc2ccc(C)c(C)c2)C1	-12.3%
O=C(c1ccco1)N1CCC2(CC1)CC(N(Cc1ccc(F)cc1)C1CC1)CCO2 (centres undefined)	-2.8%
COC(=O)CNC(=O)N1CCC2(CC1)CC(c1ccccc1)CN(C)C2 (centres undefined)	-1.5%
CCNc1cc(N2CCC(CCC(=O)N3CCc4ccccc4C3)CC2)ncn1	11.2µM*
Cc1ccc(C2=NC3(CCN(C(=O)c4cccc(C#N)c4)CC3)ON2)cc1	-3.6%
CCN1C(=O)C2CC3(CCN(Cc4cn[nH]c4-c4ccc(F)cc4)CC3)CN2C1=O (centres undefined)	-9.8%
COCCCn1c(C)cc(C(=O)NCC(=O)N2CCCCCNC(=O)CC2c2ccccc2)c1C (centres undefined)	5.2%
CCOc1ccccc1CN1C[C@@H]2C(=O)N(Cc3ccc4c(c3)OCO4)C(=O)[C@@H]2C1	-1.5%
Cc1cccc(CN2CCNc3cc(-c4ccnc(C)c4)ncc3C2)c1	-16.5%[70.6 µM]
CCCNC(=O)N(C1CCOCC1)C1CCN(C(=O)c2ccoc2)CC1	2.7%
O=C(Cc1ccccc1Cl)N1CCC2(CC1)NC(=O)N(c1cccc(F)c1)N2	-12.1%
COc1ccccc1N1CCN(C(=O)Cn2ccn3nc(-c4ccc(F)cc4)c(CO)c3c2=O)CC1	0.3%
CCOC(=O)CN1CCCC1c1ccc(C(=O)NCCn2ccnc2)s1 (centres undefined)	-6.5%
COc1ccc(C2Cn3cnc(C(=O)N4CCC(C(=O)Nc5cc(F)cc(F)c5)CC4)c3CO2)cc1 (centres undefined)	u
CCc1ccc(NC(=O)c2ccc3c(c2)N(CC)C2CCCCN2C3=O)cc1 (centres undefined)	-9.3%

Given bar-delimited: entries from further up.
SMILES | NPR1 antag
COc1ccc(C2Cn3cnc(C(=O)N4CCC(C(=O)Nc5cc(F)cc(F)c5)CC4)c3CO2)cc1 (centres undefined) | u
O=C(Cc1ccccc1Cl)N1CCC2(CC1)NC(=O)N(c1cccc(F)c1)N2 | -12.1%
CCOc1ccccc1CN1C[C@@H]2C(=O)N(Cc3ccc4c(c3)OCO4)C(=O)[C@@H]2C1 | -1.5%
CCNc1cc(N2CCC(CCC(=O)N3CCc4ccccc4C3)CC2)ncn1 | 11.2µM*
COCCCn1c(C)cc(C(=O)NCC(=O)N2CCCCCNC(=O)CC2c2ccccc2)c1C (centres undefined) | 5.2%

Continued:
SMILES	NPR1 antag
Cc1ncoc1C(=O)NCC1Cn2cccc2C(=O)N1Cc1ccccc1 (centres undefined)	-3.2%
CC(C)N1C(=O)C(CC(=O)NCCc2c[nH]c3ccccc23)=C2CCCCC21 (centres undefined)	-16.8%
CC(C)CC(=O)N1CCC(N2CCCC(C(=O)NCc3ccccc3)C2)CC1 (centres undefined)	4.0%
CCC1(O)CCC12CCNCC2 (centres undefined)	1.6%
CCOCCN1C(=O)COC[C@@H]1[C@H](O)c1ccc(NC(=O)c2ccc(OC)cc2)cc1	-1.7%[70.6 µM]
CCOc1ccc(NC(=O)C2CCc3ncc(-c4ccsc4)n3C2)cc1 (centres undefined)	-10.3%
COc1cccc(CC(=O)N2CCc3nnc([C@@H]4C[C@@H](O)CN4C)n3CC2)c1	8.8%
COc1cc(C)c(CN2CCCn3nc(C(=O)N4CCCC4)cc3C2)cc1C	-9.1%
Cc1noc(C)c1CCC(=O)N1CC[C@@H](NC(=O)c2cnccn2)[C@H](O)C1	8.5%
O=C(Cc1ccsc1)N1CCN(c2cc(-c3cccs3)[nH]n2)CC1	-1.8%
O=C(NCc1ccncc1)C1c2ccccc2C(=O)N(Cc2ccccc2)C12CCCC2 (centres undefined)	4.9%
COc1cccc(N2CCN(C(=O)C3CCCN(Cc4cccnc4)CCC(=O)NCC3)CC2)c1 (centres undefined)	1.8%
CCn1ncc(S(=O)(=O)N2CCC3(CC2)CNC(C(=O)O)C3)c1C (centres undefined)	13.5%
COc1cncc(NC(=O)C2=NO[C@@H]3CN(Cc4ccc(F)c(Cl)c4)C[C@H]23)c1	-11.0%[70.6 µM]
CCC(C)C(=O)NC1CCN(c2cn[nH]c(=O)c2)CC1 (centres undefined)	0.5%
COCCn1nc2n(c1=O)CCN(C(=O)c1cncc(Br)c1)CC2	-6.7%
COc1cccc(C(O)c2nc(C(=O)NCc3ccccc3)c(C)o2)c1 (centres undefined)	4.0%[70.6 µM]
CS(=O)(=O)N(C1CC1)C1CCOC2(CCN(C(=O)CCCc3ccccc3)CC2)C1 (centres undefined)	-20.4%
c1ccc(C2=NOC3(CCN(Cc4cccc5ccccc45)CC3)C2)cc1	-7.1%
Cc1cc(C)c(CN2CCC3(CCCN(C)C3=O)C2)c(-n2cccn2)c1 (centres undefined)	1.0%
COc1ccc(C(=O)NCC2Cn3cccc3C(=O)N2C)cc1OC (centres undefined)	-1.4%
CN(CC1CCOCC1)C(=O)Nc1cccc(F)c1	6.8%
CC(=O)NC1(C)CCN(Cc2ccc(-c3cccc4ncccc34)cc2)C1 (centres undefined)	-1.0%[70.6 µM]
C=CCOc1cccc(C(=O)N2CCC(Cc3ccc(OC)cc3)(C(=O)OCC)CC2)c1	-2.7%
OCC1(CC2CC2)CCCN(c2nccc(C(F)(F)F)n2)C1 (centres undefined)	2.8%
CCn1cc(-c2ccc(Cl)cc2)cc1C(=O)N1CCCN(C)CC1	-8.7%
COc1ccc(C(C)NC(=O)COc2ccc(NC(C)=O)cn2)cc1 (centres undefined)	7.8%
CN(C)c1nc(-c2ccncc2)nc2c1CCN(C(=O)c1[nH]ncc1Cl)C2	-2.5%
COc1ccc(F)cc1S(=O)(=O)N1CCCN(C(=O)C2CC2)c2ccccc21	0.6%
Cc1nc(C)c(CC(=O)NC2CCCN(CCCc3ccccc3)C2)c(=O)[nH]1 (centres undefined)	4.2%
CCOCCCNC(=O)NC1CCN(c2ccc(OC)cc2)C1=O (centres undefined)	-0.8%
CN(C)C(=O)c1cccnc1OC1CCN(C(=O)c2cccc(F)c2)C1 (centres undefined)	-0.9%
COc1ccc([C@H]2C[C@@H](O)[C@@H](O)[C@@H]2NCc2cccc(OC)c2)cc1	-20.0%[70.6 µM]
CC[C@H]1CN(S(C)(=O)=O)CC[C@H]1CC(=O)NCc1cccc2ccccc12	-6.1%[70.6 µM]
O=C(c1cocn1)N1C[C@@H](COCC2CC2)[C@H](c2ccccn2)C1	5.3%
CC(C)C(=O)N1C[C@@H]2CCCN3CCC[C@@H]([C@H]23)[C@H]1CCCC(=O)NCC1CC1	-3.1%

Some of these compounds in order of their number in NPR1 antag, highest first:
SMILES,NPR1 antag
Cc1nc(C)c(CC(=O)NC2CCCN(CCCc3ccccc3)C2)c(=O)[nH]1 (centres undefined),4.2%
CCOCCCNC(=O)NC1CCN(c2ccc(OC)cc2)C1=O (centres undefined),-0.8%
CN(C)C(=O)c1cccnc1OC1CCN(C(=O)c2cccc(F)c2)C1 (centres undefined),-0.9%
CN(C)c1nc(-c2ccncc2)nc2c1CCN(C(=O)c1[nH]ncc1Cl)C2,-2.5%
CC(C)C(=O)N1C[C@@H]2CCCN3CCC[C@@H]([C@H]23)[C@H]1CCCC(=O)NCC1CC1,-3.1%
CCn1cc(-c2ccc(Cl)cc2)cc1C(=O)N1CCCN(C)CC1,-8.7%

Other records
SMILES	NPR1 antag
O=C(NC1CCCCC1)C1CCN(C(=O)c2ncn3c2COC(c2ccc(F)cc2)C3)CC1 (centres undefined)	2.0%
CC(C)C(=O)N1CCC(N2C(=O)C3(CCCCC3)C2c2ccncc2)CC1 (centres undefined)	0.1%
CC(C)NC(=O)N1CCN(C(=O)c2cccnc2)C[C@H]1C(=O)N[C@@H](CC1CCCCC1)C(N)=O	4.8%
O=C1[C@@H]2[C@@H](CCN2C(=O)NC2CCCCC2)N(Cc2cccs2)C(=O)N1c1cccc(F)c1	8.3%
O=C(c1ccccn1)N1CCCC(c2nc(CCOCC3CC3)no2)C1 (centres undefined)	-12.9%
C#CCNC(=O)c1nc(-c2cccnc2)c2cnccn12	12.6%[70.6 µM]
NC(=O)C1(C(=O)N2C[C@@H](C(=O)O)[C@H](c3ccc4c(c3)OCO4)C2)CC1	1.4%
Cc1nc(C2CCCCN2C(=O)c2cccc(F)c2)n[nH]1 (centres undefined)	2.2%
O=C(N1CCN(C/C=C/c2ccccc2)CC1)C12CNCC1CNC2 (centres undefined)	-5.9%
COc1cccc(CN2CC[C@H](c3nnc(-c4ccco4)o3)C2)c1	1.5%[70.6 µM]
O=C(NC[C@H]1O[C@@H](CC(=O)N2CCN(c3ccc(F)cc3)CC2)[C@H](O)[C@@H]1O)c1cccc(F)c1	0.5%
COCc1c(C(=O)N[C@@H]2CN(Cc3ccccn3)C[C@H]2CN(C)C)noc1C	0.1%
COc1ccccc1CCC(=O)NC1CCN(C(=O)c2cc3c(=O)[nH]c(C)cn3n2)CC1	1.4%
CC1(C(=O)Nc2ccncc2)CCCc2cnc(Nc3ccccc3)nc21 (centres undefined)	-17.5%[70.6 µM]
c1cc(CNC[C@H]2Cn3cc(-c4ccc5c(c4)OCCCO5)nc3CO2)ccn1	-1.9%[70.6 µM]
O=C(c1cc(Cl)ccc1Cl)N1CCN(c2cc(-c3cccs3)[nH]n2)CC1	u
O=C(N[C@@H]1CN(Cc2cc(F)cc(F)c2)C[C@H]1CO)c1ccccc1	2.2%
O=C(NCCc1ccc(Cl)cc1)C1CN(c2ccc(F)cc2)C(=O)N1 (centres undefined)	3.7%
COc1ccccc1-c1[nH]nc2ncc(-c3c(C)noc3C)nc12	1.7%[70.6 µM]
O=S(=O)(c1cnc[nH]1)N1CCC(c2nc(CCOCC3CCCC3)no2)C1 (centres undefined)	2.0%
O=C(C1NCCc2[nH]cnc21)N1CCC(c2nc(-c3ccccc3)no2)CC1 (centres undefined)	4.3%
CCC(CC)C(=O)N[C@@H](Cn1cc(-c2ccccc2F)c(=O)[nH]c1=O)C(=O)O	-5.3%[70.6 µM]
CCCN(CC1CCOC1)C(=O)NCC(C)C (centres undefined)	3.7%
CCOc1cc(=O)n2c(c1C(=O)Nc1cc(Cl)ccc1F)CCCC2	-10.5%
Cc1noc(C)c1S(=O)(=O)N1CCC[C@H](n2c(=O)n(C)c3cccnc32)C1	-2.4%
COCCn1c(C)cc(C(=O)N2CCc3nn(CCOC)c(=O)n3CC2)c1C	-1.1%
NC(=O)CN1CCCC(N2CCN(Cc3ccc4c(c3)OCO4)CC2)C1 (centres undefined)	2.9%
CN1CCN(C(=O)c2cccc3nccnc23)CC12CCNCC2	1.6%
Cc1ccc(C(=O)N2CCCN(c3cc(-c4ccc(Cl)cc4)[nH]n3)CC2)cc1C	-21.7%
CC#CCn1cc2c3c(cccc31)[C@H](CC(C)C)N[C@H](C(=O)N1CCN(CCO)CC1)C2	-3.4%[70.6 µM]
Cc1[nH]c(=O)c(C#N)cc1C(=O)N1CCC2(CC1)C(=O)Nc1ccccc12	0.7%
CCS(=O)(=O)Nc1ccc(C(=O)N[C@H]2C[C@@H](C(=O)OC)N(C)C2)cc1	-2.5%
O=C(NCCc1ccccc1)c1cnc2c(c1)N([S+](=O)([O-])c1cccnc1)CCC2	-1.3%[70.6 µM]
COCCC(=O)N1CCC(c2noc(COc3ccc(F)cc3)n2)C1 (centres undefined)	2.3%
COc1ccc(C2Cn3nnc(C(=O)N4CCC(C(=O)NC5CCCCC5)CC4)c3CO2)cc1 (centres undefined)	-5.8%
O=C(Nc1cccnc1)c1cnc2c(c1)N(Cc1ccccc1)CCC2	-9.9%[70.6 µM]
Nc1nnnn1CC(=O)N1CCCCC1CCc1ccccn1 (centres undefined)	6.4%
CN(CC1CCOCC1)C(=O)Cc1c(F)cccc1Cl	1.4%
Cc1cccc(NC(=O)N2CCn3nnc(CCC(=O)NC4CC4)c3C2)c1	-2.0%
CCn1cc(CN2CCC(N3CC(OCC4CC4)C34CCCCC4)CC2)cn1 (centres undefined)	-14.3%
COc1cc(=O)n2c(c1C(=O)Nc1cc(Cl)cc(Cl)c1)CCCC2	4.4%
CCCNC(=O)O[C@@H]1CC[C@]2(C)C(CC[C@H]3OC(=O)C[C@H]32)[C@]1(C)CO (some centres undefined)	7.5%[70.6 µM]
CCn1cc(-c2ccc(OC)cc2)cc1C(=O)NCCN1CCN(C)CC1	2.9%
CC1=C[C@@H](CC#N)[C@H](C(C)C)C[C@H]1CC(=O)N1CCN(c2cnccn2)CC1	u
CN(C)C[C@@H]1CN(S(C)(=O)=O)C[C@H]1NC(=O)CCCc1ccccc1	-0.8%
Cc1ccc(-n2nc3n(c2=O)CCN(C(=O)c2cccc(Cl)c2)C3)cc1	u
CCn1nccc1C(=O)N1CCC(Cc2noc(C3CCOCC3)n2)C1 (centres undefined)	-2.9%
O=C1NCCCCCN(C(=O)CC2CCCC2)[C@@H]2C[C@@H](C(=O)N3CCc4ccccc4C3)C[C@H]12	-10.9%
CN(CC1CCOC1)C(=O)Nc1ccc(F)c(Cl)c1 (centres undefined)	-2.2%

Source: PubChem (National Center for Advancing Translational Sciences (NCATS))
